Bioassay records from PubChem BioAssay.
Tg IFNy HTS – T. gondii growth inhibition under IFN-gamma | activity change, negative = inhibition, %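 (about 20 µM by stock and volumes)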 | 69,000 tested, 3.8% active | Toxoplasma gondii growth in IFN-gamma-treated host cells; hits give low values; reference of the scale not given here;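 active = below -70%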;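 note: host cells are HeLa cells infected with Toxoplasma gondii; parasite growth read as luciferase light; one replicate is shown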
* marks the source's active call; other numbers are inactive results; & = joins results of further samples.

Sample of the layout:
SMILES	Tg IFNy HTS
COc1cccc(C(=O)Nc2ccc3c(c2)C(=O)N(C)[C@@H]2CC[C@@H](CC(=O)N[C@H](C)c4ccccc4)O[C@@H]2CO3)c1	-10
CN(C)C(=O)N[C@H]1CCO[C@]2(CCN(CCc3ccccc3)C2)C1	56
c1ccc(-c2nnc(-c3nc(NCCc4cccs4)c4ccccc4n3)o2)cc1	-40
Cc1cc(C)c(C#N)c(Nc2cc(C(F)(F)F)ccc2Cl)n1	-45
CCC/C=C/c1ccc(NC2CC2)nn1	68
COc1ccc(NC(=O)N(C)C[C@@H]2OCc3ccccc3-c3ccccc3C(=O)N([C@H](C)CO)C[C@H]2C)c(OC)c1	14

All compounds of this part, repeating the preview:
SMILES	Tg IFNy HTS
COc1cccc(C(=O)Nc2ccc3c(c2)C(=O)N(C)[C@@H]2CC[C@@H](CC(=O)N[C@H](C)c4ccccc4)O[C@@H]2CO3)c1	-10
CN(C)C(=O)N[C@H]1CCO[C@]2(CCN(CCc3ccccc3)C2)C1	56
c1ccc(-c2nnc(-c3nc(NCCc4cccs4)c4ccccc4n3)o2)cc1	-40
Cc1cc(C)c(C#N)c(Nc2cc(C(F)(F)F)ccc2Cl)n1	-45
CCC/C=C/c1ccc(NC2CC2)nn1	68
COc1ccc(NC(=O)N(C)C[C@@H]2OCc3ccccc3-c3ccccc3C(=O)N([C@H](C)CO)C[C@H]2C)c(OC)c1	14
CC(C)c1nccn1CCCNC(=O)c1ccc(-c2ccc(N)nc2)nc1	-7
CCC1CN(Cc2ccc(CN(C)S(C)(=O)=O)o2)CCN1C(C)C (stereo unspecified)	14
CCc1ccc(/C=C2/SC(=S)NC2=O)cc1	93
C[C@H](CO)N1C[C@H](C)[C@H](CN(C)C(=O)Cc2cccnc2)Oc2cc(C#Cc3ccccc3F)ccc2S1(=O)=O	-89*
CCc1cn[nH]c1C1CCN(c2cc(C(C)C)nc(C(F)(F)F)n2)CC1	-23
CCN1CCC2(CC1)CC(NC(=O)[C@H]1CCCO1)c1ccccc1O2 (stereo partly specified)	-5
CC(c1ccc(-c2cc(C(=O)N3CCN(C)CC3)ccn2)cc1)N1CCCC1 (stereo unspecified)	3
Cc1ccc(-c2nccc(C(F)(F)F)n2)c(-n2cccn2)c1	-5
CN(Cc1cnccn1)c1ccc(-c2nc(-c3cccc(Cl)c3)no2)cn1	8
CCn1c(CN2CC[C@@H](c3sccc3C)[C@H](O)C2)nc2ccccc21	11
COc1cccc(NC(=O)C[C@H]2CC[C@H]3[C@H](COc4ccc(NC(=O)C5CC5)cc4C(=O)N3C)O2)c1	2
Cn1nc(CN2CCCC2)c2c1CN(S(=O)(=O)Cc1ccccc1)CC2	-4
CC(=O)N1CCc2c(nc(C3CCCN3C(=O)Cc3ccccc3)[nH]c2=O)C1 (stereo unspecified)	6
Cc1noc(C)c1S(=O)(=O)N1CCCC2(CC1)CN(C)C(=O)O2 (stereo unspecified)	-10
CC(C)N1c2sc(-c3ccsc3)nc2CC1C(=O)N(C)C (stereo unspecified)	-9
Cn1ccn2ncc(C(=O)N(Cc3ccc4c(c3)OCO4)C3CC3)c12	-17
OCCOCc1ncn2c1CN(c1ncccn1)CCC2	-2
CNc1ncc(CN(C)C(=O)C(c2cccc(C)c2)N(C)C)cn1 (stereo unspecified)	-31
COc1ccc(S(=O)(=O)NCCc2csc(-c3ccc(Cl)cc3)n2)cc1OC	37
COc1ccccc1CNC(=O)c1cncc(NS(=O)(=O)c2ccc(F)cc2)c1	-23
COc1ccc2c(c1)CCCN2C(=O)Cn1nc(C)cc1C	-2
CC(C)(CNC(=O)C1CC2(CCNCC2)CN1)N1CCc2ccccc2C1 (stereo unspecified)	3
Cc1ccc(C)c(NC(=O)N2CCC3(CC2)Nc2ccccc2-n2cccc23)c1	246
CCc1nc(SCC(=O)NCC2(O)C3CC4CC(C3)CC2C4)n[nH]1 (stereo unspecified)	2
O=C(Nc1nnc(C2CCCCC2)s1)C1(c2ccccc2F)CCOCC1	-8
COc1cc(OC)c(C(=O)CCCCN2CCC3(CC2)NC(=O)NC3=O)cc1NS(=O)(=O)c1ccc(C(F)(F)F)cc1	2&1
O=C(c1ccco1)N1CCC2(CC1)COC(COc1cccnc1)C2 (stereo unspecified)	22
N#C[C@@H]1[C@@H](c2ccc(-c3cccc(F)c3)cc2)[C@H](CO)N1C(=O)NC1CCCC1	-40
CCCS(=O)(=O)N1CCC2(CC1)NC(=O)CC2c1ccncc1 (stereo unspecified)	10
COc1ccc(OC)c(-n2c(Cn3c(-c4ccccn4)nc4ccccc43)n[nH]c2=S)c1	6
Cc1ocnc1C(=O)N1C[C@H]2OC(=O)N(CCc3cccc(Cl)c3)[C@H]2C1	-1
Cc1occc1C(=O)N1Cc2nnn(C)c2C(COCCN(C)C)C1 (stereo unspecified)	4
O=C(c1cccs1)N1CCC2(CC1)Nc1cc(F)ccc1-n1cccc12	94
Cc1ccc(C(=O)N2CCC3(C2)CN(c2ccccc2)C(=O)CN3C)cn1 (stereo unspecified)	-2
COc1cccc(-n2cc(CN(C)Cc3cccc4nonc34)cn2)c1	1
CC(=O)N1CCC2(CCC(N3CCC(Cn4cccn4)CC3)CC2)CC1	6
COCc1c(C(=O)N2CCN(c3nc4ccccc4s3)CC2)noc1C	1
O=C(O)c1ccc2nc3c(nc2c1)-c1cccc2cccc-3c12	-110*
O=C1C[C@H]2CC[C@@H](CN1)N2C(=O)CCc1cccnc1	-37
c1ccc(-n2cnnc2)c(N2CCCC2)c1	3
Cc1ccccc1-c1ncc(CNCc2csc(-c3cnccn3)n2)s1	19
O=C(Cc1c[nH]c2ccccc12)N1CCCC(CO)(Cc2ccccc2)C1 (stereo unspecified)	-3
Cc1noc(-c2cc(=O)n(CC(=O)Nc3cccc(Cl)c3)c3ccccc23)n1	-10
Cc1[nH]nc(-c2ccc(O)cc2O)c1Oc1ccccc1	25

The list goes on.
SMILES	Tg IFNy HTS
COc1cc(C(=O)N2CCC(c3onc4c3CCC4)CC2)cc(OC)c1OC	8
CNC(=O)C1(Cc2cccc(-c3ccncc3)c2)CN(C(=O)c2ccccc2)CCO1 (stereo unspecified)	5
CC(Oc1ccc2c(c1)OCO2)C(=O)Nc1ccc(-n2ccnc2C(C)C)cc1 (stereo unspecified)	36
Nc1nc(CCC(=O)N2CCCC3(CNC(=O)O3)C2)cs1 (stereo unspecified)	17
CN(C)c1cc(CCNC(=O)c2ccc3oc(=O)[nH]c3c2)nc(-c2ccccn2)n1	-13
CCCc1nc(C(=O)N2Cc3cnc(-c4ccccc4)nc3C2)cs1	19
O=C(NC[C@H]1[C@H](c2ccccc2)[C@H](CO)N1Cc1ccccn1)C1CCCC1	-1
CCOc1cc(Cl)c(S(=O)(=O)Nc2ccc3cn[nH]c3c2)cc1Cl	-35
O=C(NCCc1c[nH]c2ccc(Cl)cc12)c1sc2ncccc2c1-n1cccc1	423
O=C(C1CCCCC1)N1CCCC(c2nc(-c3ccc(Cl)cc3)no2)C1 (stereo unspecified)	5

2 successive entries already listed, quoted:
SMILES	Tg IFNy HTS
O=C(NCCc1c[nH]c2ccc(Cl)cc12)c1sc2ncccc2c1-n1cccc1	423
O=C(C1CCCCC1)N1CCCC(c2nc(-c3ccc(Cl)cc3)no2)C1 (stereo unspecified)	5

(list continues)
SMILES	Tg IFNy HTS
Cn1c(COc2ccccc2)nnc1SCC(=O)Nc1ccc2c(c1)n(C)c(=O)n2C	-12
O=C(CCO)N1CCOC2C(Cn3ccnc3)CCC21 (stereo unspecified)	209
O=C(Cn1ncc2c(N3CCN(c4ccccn4)CC3)ncnc21)Nc1cc(F)cc(F)c1	-64
CCOc1ccc(-c2nc(CN3CCN(C(=O)Nc4ccc(C)c(C)c4)CC3)c(C)o2)cc1	2
C[C@H]1CN([C@@H](C)CO)C(=O)c2c(c3ccccc3n2C)-c2ccccc2CO[C@@H]1CN(C)C(=O)Nc1ccc2c(c1)OCO2	56
CNC(=O)CN1CCOCC12CCN(c1ccc(C#N)cc1)CC2	95
Cc1nonc1-c1csc(NC(=O)c2noc3c2CC(C(C)(C)C)CC3)n1 (stereo unspecified)	-12
OC(CCCc1ccccc1)(c1ccc(Cl)cc1)c1ccc(Cl)cc1	-80*
O=C(Cn1c(=O)cc(C(=O)N2CCOCC2)c2ccccc21)Nc1cccc(Cl)c1	4
CCNC(=O)[C@H]1[C@H](CO)[C@H]2Cn3c(ccc(-c4ccncc4)c3=O)[C@H]2N1Cc1cc(F)ccc1F	-4
Cc1cccc(S(=O)(=O)N2CCC3(CC2)Nc2ccc(C)c(C)c2-n2cccc23)c1	10
C=CCN1C(=O)CO[C@@H]2CN(C(=O)CCc3ccccc3)C[C@@H]21	-42
COc1ccc(Cl)cc1C(=O)NCCc1ccc(C(=O)O)cc1	14
Cc1nc(N2CCOCC2)c2sc(=S)n(-c3ccccc3)c2n1	11
COc1ccc(CNC2=NCCNC23CCN(S(=O)(=O)c2ccc(C)cc2C)CC3)cc1	-10
O=C(c1ccco1)N1CCC2(CC1)COCCN2CC1CC1	1
Cc1nccn1CC1CCCN(Cc2ccc(-c3cccnc3)cc2)C1 (stereo unspecified)	5
CC(C)(C)c1ccc(-c2nc3ccccc3[nH]2)cc1	-87*
Cc1cc(NC(=O)N2CCC3(CC2)CC(=O)c2ccccc2O3)ccc1Br	-75*
CCCc1ncncc1C(=O)NCc1cc(F)cc2c(C)c(C)[nH]c12	-3

Compounds listed so far that have a furan ring, fused or not:
SMILES	Tg IFNy HTS
CCC1CN(Cc2ccc(CN(C)S(C)(=O)=O)o2)CCN1C(C)C (stereo unspecified)	14
O=C(c1ccco1)N1CCC2(CC1)COC(COc1cccnc1)C2 (stereo unspecified)	22
Cc1occc1C(=O)N1Cc2nnn(C)c2C(COCCN(C)C)C1 (stereo unspecified)	4
O=C(c1ccco1)N1CCC2(CC1)COCCN2CC1CC1	1

Back to the main list; the three compounds before the break are reprinted first.
SMILES	Tg IFNy HTS
CC(C)(C)c1ccc(-c2nc3ccccc3[nH]2)cc1	-87*
Cc1cc(NC(=O)N2CCC3(CC2)CC(=O)c2ccccc2O3)ccc1Br	-75*
CCCc1ncncc1C(=O)NCc1cc(F)cc2c(C)c(C)[nH]c12	-3
CC[C@H]1N(S(=O)(=O)c2cn(C)cn2)CCC[C@@]12CCC(=O)N2	239
C[C@@H]1CN([C@H](C)CO)C(=O)c2cc(NS(=O)(=O)c3ccc(Cl)cc3)ccc2O[C@@H](C)CCCCO[C@@H]1CN(C)C(=O)CCCN(C)C	-16
c1ccc(Cc2nc(CCc3cn4ccccc4n3)n[nH]2)cc1	-2
CO[C@H]1CC[C@@H]2CCOc3ccc(C#N)cc3C(=O)N(C)[C@@H](C)C(=O)N(C)C[C@H]1O2	2
CCn1cc(S(=O)(=O)NCCC(c2ccccc2)c2ccc3c(c2)OCO3)cn1 (stereo unspecified)	15
CC(C)(C)OC(=O)N1CCCN(S(=O)(=O)c2cccc3nsnc23)CC1	0
CS(=O)(=O)CC(=O)N1C[C@H]2COC[C@@]2(COc2ccccn2)C1	-4
CN1c2ccc(C#Cc3cccnc3)cc2[C@H]2[C@H](CCN2C(=O)CN2CCOCC2)[C@@H]1CO	24
CC(C)c1noc(C2CCCN2C(=O)c2cnnn2-c2ccccc2)n1 (stereo unspecified)	-54
CCOC(=O)[C@@]12CCCN(Cc3ccccn3)C[C@@H]1CN(c1ccccn1)C2	0
Cc1ccc2n1CCN(C(=O)COc1ncnc3ccccc13)C2C(C)C (stereo unspecified)	81
O=C(Nc1ccc2c(c1)OCCO2)Nc1cccs1	476
Cc1ccc(NC(=O)c2cncc(NS(=O)(=O)c3ccc(C)cc3C)c2)c(C)c1	-19
O=C(c1cscn1)N1CCC2(CN(CC3CCOCC3)C2)C1	-3
Nc1nc2ccc(-c3nc4ccccc4[nH]3)cc2s1	470
CCC[C@@H](NC(=O)N1C(=O)C(CC)(CC)[C@@H]1Oc1ccc(C(=O)N2CCN(C)CC2)cc1)c1ccc2c(c1)OCO2	-18
CN1C(=O)N(CCCc2ccncc2)C(=O)C12CCN(CC1=CC[C@H]3C[C@@H]1C3(C)C)CC2	8
Cc1cccc(-c2nc(CN(c3ccccc3)S(=O)(=O)c3cccs3)c(C)o2)c1	-37
CCOc1cccc(-c2csc(CN3CCNCC3)c2)c1	8
CN(CCC1CCOCC1)c1nccc(N2CCC(O)C2)n1 (stereo unspecified)	-5
Cc1cc(C)cc(N2CCN(Cc3ccc(-c4ccn[nH]4)o3)CC2=O)c1	4
CC(c1cccc(-c2c(-c3ccccc3)ncn2CCF)c1)N(C)C (stereo unspecified)	19
COc1ccc(-c2cn(CC3CCS(=O)(=O)C3)nn2)cc1OC (stereo unspecified)	13
Cc1oc(C2CCN(S(=O)(=O)c3cccc(F)c3)CC2)nc1C(=O)N(C)C	97
O=C(NC[C@@]12COC[C@@H]1CN(c1ncccn1)C2)c1cccnc1	-45
O=C(O)CCn1ncc2ccccc2c1=O	8
O=C(c1cc2cccnc2n(Cc2ccc(F)cc2)c1=O)N1CCCCCC1	-12
NC(=O)C1(N2CCCCC2)CCN(c2ncc(NC(=O)c3cccs3)cc2C(=O)O)CC1	1
CC(C)Nc1ncnc2c1CCN(C(=O)N1CCOCC1)CC2	25
CCn1c(-c2cc(NC(=O)c3cnccn3)n[nH]2)cc2cc(OC)ccc21	13
Cc1nnnn1Cc1ccc(C(=O)N2CCOC(C(F)(F)F)C2)cc1 (stereo unspecified)	3
Cn1nc(CC2CCN(CC3CCOC3)CC2)n(-c2ccccc2)c1=O (stereo unspecified)	-7
COc1cccc(-c2ccc([C@H]3[C@@H](CO)N4C(=O)CN(C(=O)c5cccnc5)C[C@H]34)cc2)c1	-19
CCCS(=O)(=O)N1CCC2C1CCC(=O)N2CCN1CCCC1 (stereo unspecified)	-1
CC1CCN(S(=O)(=O)c2ccc3c(c2)CCC(=O)N3CC(=O)NCc2ccc(N(C)C)cc2)CC1	-20
COCCC(=O)N1CC2CN(CCCc3ccccc3)C2C1 (stereo unspecified)	71

Only part of the results is shown (hit frequency here may not be typical).
